# Screening results as filed in PubChem.
# Vif A3G: inhibitors of Vif binding to APOBEC3G peptide, primary screen, biochemical, TR-FRET, GST-Vif 1-94, biotin-A3G peptide, dose response retest (AID 1117319); Virion infectivity factor (Human immunodeficiency virus type 1 group M subtype B (isolate …; TR-FRET GST-Vif / biotin-A3G peptide binding; higher % means a stronger effect; test concentration not given here; strong numbers were not always called active; inhibition, %; hits with a dose series show IC50 in µM; 260,000 tested, 0.57% active;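 active = above the screen mean plus three standard deviations and confirmed in dose response; inconclusive = results disagree or hit not tested in dose response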;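 also: Vif residues 1-94 fused to GST binding biotinylated APOBEC3G peptide 110-148; 0% = full assay without inhibitor and 100% = GST in place of GST-Vif; retest series ran down from 100 µM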
# Calb FLC: C. albicans growth inhibition with fluconazole, primary screen, CaCi-2 strain, Alamar Blue fluorescence; 300,000 tested, 0.57% active; C. albicans CaCi-2 (fluconazole-resistant clinical isolate) + fluconazole, 48 h; growth inhibition, % (no concentration beside the values);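 active = most replicates above 75%; inconclusive = exactly half above 75%; inactive = most below 75%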;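 also: all wells also contain fluconazole at 8 µg/ml as a sub-toxic cotreatment; 0% = median of DMSO wells and 100% = median of geldanamycin control wells; wells of about 8 µL received 7.5 nL stock; the first replicate is given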
# Beta apoptosis: inhibitors of cytokine-induced beta cell apoptosis, primary screen, luminescence; INS-1E cytokine-induced death, ATP luminescence, 48 h; percent of positive-control rescue, neutral wells zero; 300,000 tested, 0.8% active; protection from apoptosis, % (test concentration not listed); AID 435005, 2010;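 active = all replicates at 75% or more, or half of them and the mean; inconclusive = half reach 75% but not the mean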;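 also: 0% = cytokine-treated negative control wells and 100% = positive control rescue; higher means more ATP so stronger rescue from cytokine killing; wells of about 40 µL received 100 nL stock; the first replicate is given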
# Bfl-1 A1 inh: caspase 3/7 activation in MEF A1-2A-BIM cells, primary screen, A1 inhibitor project, cell-based, luminescence, HTS; caspase activation, % (concentration not given with the values); Caspase-Glo 3/7 luminescence, 3 h; percent of clofoctol response, vehicle zero; 330,000 tested, 0.066% active;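 active = over half of replicate activation scores above 10%, or exactly half above 10 with the replicate mean above 10; inconclusive = replicate mean below 10 yet half the replicates above 10; inactive = over half of replicates below 10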;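 also: wells of about 30 µL received 50 nL stock; many hits fall short of the cut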
# T cruzi repl: inhibitors of intracellular T. cruzi growth, primary screen, luminescence, NIH3T3 host cells | 300,000 tested, 1.4% active | inhibition, % (concentration not given with the values) | T. cruzi beta-gal in NIH3T3, 90 h;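 active = mean inhibition across valid replicates above about 55%, limit read from the data; inconclusive = mean below that limit but half or more replicates reach it; inactive = mean below it, under half of replicates reach it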;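 also: signal also drops with host cell toxicity which is not excluded here; 0% = plate median of DMSO wells and 100% = zero luminescence signal; higher percent means less beta-gal luminescence so fewer parasites; stock transfer was 50 nL into about 50 µL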
# MLL AF4-AF9 inh: inhibitors of AF4 peptide binding to AF9, primary screen, biochemical, AlphaScreen, biotin-AF4 peptide, FLAG-AF9, single point; Protein AF-9 (Homo sapiens), P42568; inhibition, % at 10 µM; 350,000 tested, 0.47% active;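 active = every replicate reaching a set inhibition limit, whatever the replicate mean, cut at about 25% in these data; inconclusive = mean inhibition reaches that limit but some replicates miss it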;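 also: 0% = plate neutral control median and 100% = total signal loss; the record names both 10 and 1 µM as test concentration; the first replicate is given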
# RanGTP-Imp inh: inhibitors of RanGTP-importin-beta interaction, primary screen, biochemical, FRET, CFP-Ran, YFP-importin-beta, homogeneous | Ran GTPase (GTP-bound) - importin-beta complex | cell-free CFP-Ran/YFP-importin-beta FRET ratio | inhibition, % (concentration not given with the values) | 300,000 tested, 1.1% active | AID 2216, 2009;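 active = most replicates above 15%; inconclusive = exactly half above 15%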;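 also: 0% = DMSO wells and 100% = Ran loaded with GDP instead of GTP; wells of about 40 µL received 100 nL stock; the first replicate is given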
# LANA-H2A inh: blockers of LANA interaction with H2A/H2B – biochemical, FP readout, HTS, primary screen. Protein LANA1 (Human herpesvirus 8 type P (isolate GK18)), Q9QR71. cell-free LANA-H2A/H2B peptide, fluorescence polarization. inhibition, % (concentration not given with the values). 320,000 tested, 0.6% active. AID 2629, 2010; in the data active = inhibition mostly above about 10%, no sharp cut-off; inactive = mostly below about 6.7%;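 also: stock transfer was 7.5 nL into about 10 µL; 0% = median of vehicle wells and 100% = median of positive control wells; one replicate is shown; the record names a cut of 25% in any replicate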
# Target sequence (Q9QR71 whole entry, looked up): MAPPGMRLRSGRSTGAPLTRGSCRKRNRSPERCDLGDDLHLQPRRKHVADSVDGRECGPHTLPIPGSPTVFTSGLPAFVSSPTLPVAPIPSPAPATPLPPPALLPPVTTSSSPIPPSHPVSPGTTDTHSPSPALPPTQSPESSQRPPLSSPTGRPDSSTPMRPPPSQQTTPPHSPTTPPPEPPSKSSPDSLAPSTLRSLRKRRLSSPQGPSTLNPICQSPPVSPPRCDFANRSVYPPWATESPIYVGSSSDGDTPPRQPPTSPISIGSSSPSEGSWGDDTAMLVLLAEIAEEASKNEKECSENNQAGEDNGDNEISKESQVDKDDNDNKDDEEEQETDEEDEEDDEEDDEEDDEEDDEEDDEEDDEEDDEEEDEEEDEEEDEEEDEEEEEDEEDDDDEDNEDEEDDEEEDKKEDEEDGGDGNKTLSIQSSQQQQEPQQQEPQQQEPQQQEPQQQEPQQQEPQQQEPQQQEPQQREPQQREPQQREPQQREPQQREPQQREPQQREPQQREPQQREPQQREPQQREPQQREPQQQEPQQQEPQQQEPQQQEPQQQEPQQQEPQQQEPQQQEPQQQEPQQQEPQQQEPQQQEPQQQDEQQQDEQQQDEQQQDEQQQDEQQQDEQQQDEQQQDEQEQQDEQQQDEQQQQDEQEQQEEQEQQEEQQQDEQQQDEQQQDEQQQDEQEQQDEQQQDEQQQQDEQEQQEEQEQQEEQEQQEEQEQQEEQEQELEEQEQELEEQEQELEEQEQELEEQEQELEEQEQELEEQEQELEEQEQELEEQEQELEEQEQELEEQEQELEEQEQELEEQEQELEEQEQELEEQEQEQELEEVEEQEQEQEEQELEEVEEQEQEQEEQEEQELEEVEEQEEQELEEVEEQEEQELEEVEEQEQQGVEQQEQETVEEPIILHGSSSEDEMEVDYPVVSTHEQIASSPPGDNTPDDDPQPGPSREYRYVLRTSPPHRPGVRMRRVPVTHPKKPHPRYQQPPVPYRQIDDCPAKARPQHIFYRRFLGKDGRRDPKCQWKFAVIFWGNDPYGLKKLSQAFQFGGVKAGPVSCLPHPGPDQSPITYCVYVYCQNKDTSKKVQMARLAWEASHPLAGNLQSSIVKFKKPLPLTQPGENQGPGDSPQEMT
# * = called active by the depositor; ? = inconclusive; . = not tested or not shown; + = active, no number; & = joins results of further samples. Not a hit list; about 4.3% have a hit in one of these screens.
SMILES,Vif A3G,Calb FLC,Beta apoptosis,Bfl-1 A1 inh,T cruzi repl,MLL AF4-AF9 inh,RanGTP-Imp inh,LANA-H2A inh
O=C(COc1ccccc1)N1CCN(C(=O)c2ccco2)CC1,-4%,-5,2,-0.8,-1,-3.4,0.2,3.0
COc1cc(C)cc(CN2CCC(Cc3ccccc3)CC2)c1O,-9%,0,5,0.5,12,9.1,3.3,0.6
Cc1ccc(S(=O)(=O)NCCC(c2ccccc2)c2ccccc2)cc1C(=O)O,.,13,7,-1.1,-1,-3.8,1.7,2.9
COc1ccccc1-c1cc(C(=O)N2CCOCC2)no1,13%,9,4,-0.8,-4,0.0,3.1,-0.2
Cc1[nH]n(C(N)=S)c(=O)c1N=Nc1ccc([N+](=O)[O-])cc1Cl,3%,3,6,-7.0,1,2.3,-1.6,2.3
COc1ccccc1/C=C/C(=O)OCCN1C(=O)c2ccccc2C1=O,1%,3,-4,-0.8,-7,0.2,8.1,2.2
Cc1noc(C)c1S(=O)(=O)NC1CCCc2ccccc21 (stereo not given),-5%,-9,-2,-0.4,-3,.,1.0,0.8
Cc1ccc(NC(=O)CC(O)(C(F)(F)F)C(F)(F)F)cc1,8%,-9,2,-0.3,3,.,-3.2,2.6
COc1ccc(NC(=O)CN2CCN(CC(=O)Nc3ccccc3Cl)CC2)cc1Cl,2%,-3,-15,?,-4,.,1.5,-0.3
CC(CCc1ccccc1)NC(=O)c1cnc(Cl)c(Cl)c1 (stereo not given),-13%,-5,-1,-0.3,-3,0.2,-3.5,-2.6
c1ccc(-c2cnc(CSc3ncnc4sccc34)o2)cc1,16%,17,-16,-0.6,-7,.,-5.0,-6.9
CSc1ccccc1N=Cc1nc(-c2ccccc2)oc1O,-3%,18,-4,-2.5,2,.,?,2.8
O=C(NCc1ccccn1)c1cc(Br)ccc1Cl,4%,0,-3,0.0,1,-2.7,-4.0,1.9
COc1cc(-c2cc(=O)c3c(O)cc(O)cc3o2)ccc1O,14%,-2,-10,-0.7,-3,.,10,-1.5
COc1ccc(C2CC(c3ccccc3)=NN2C(=O)COC(=O)c2cccc(S(=O)(=O)N3CCOCC3)c2)cc1 (stereo not given),.,8,13,0.0,72*,.,-0.4,-5.5
C=CCNC(=S)NC(=O)c1csc([N+](=O)[O-])c1,.,-11,-6,-0.3,40,1.5,3.9,-4.8
Cc1c(C)c2ccc(OCC(=O)NCCc3c[nH]c4ccccc34)c(C)c2oc1=O,.,0,8,1.2,11,-1.0,2.2,-3.5
Cc1cc(C2C(=O)c3ccccc3C2=O)c(C)c(C)c1C,.,-8,-2,1.1,-1,0.2,0.2,0.2
Cc1cc2nc(SCC(=O)Nc3nonc3C)c3c(c2cc1C)CCCC3,4%,2,-2,0.4,-4,.,-2.2,1.0
Cc1ccc(CNc2cc(C(=O)O)ccc2Cl)s1,15%,12,-2,1.0,3,-0.5,-3.9,-6.6
CCOC(=O)/C(C#N)=C(/C)c1ccc(OC)cc1,0%,4,-15,-0.1,-11,.,-2.6,-3.0
O=C(CN1CCN(Cc2ccccc2F)CC1)Nc1ccccc1Cl,-4%,31,1,0.8,7,-0.2,4.9,3.7
O=[N+]([O-])c1ccc(C(=S)N2CCCC2)cc1,8%,-18,-5,-0.7,-6,-1.8,0.2,+
OCCNc1nc2ccccc2n1CCN1CCCCC1,9%,-7,-3,0.9,-7,.,9.5,3.0
O=[N+]([O-])c1ccc(C2=NN(c3ccccc3)C(c3ccco3)C2)cc1 (stereo not given),.,-10,.,.,19,1.4,-44,.
SMILES,Vif A3G,Calb FLC,Beta apoptosis,Bfl-1 A1 inh,T cruzi repl,MLL AF4-AF9 inh,RanGTP-Imp inh,LANA-H2A inh
O=C(NCCc1ccccc1)N1c2ccccc2Sc2ccccc21,2%,3,1,-0.1,30,.,-0.6,3.8
COC(/C=C/Nc1ccc(C)c(C)c1)=C(C#N)C#N,4%,29,5,0.6,2,.,5.3,-0.5
COc1ccc(Cl)cc1NC(=O)CCNC(=O)OCc1ccccc1,.,-8,-5,1.4,0,-3.4,2.8,-1.8
COc1ccc(NC(=O)c2cccnn2)cc1,-1%,-4,-7,-1.8,-6,-3.3,4.1,0.6
CCOC(=O)C1C(=O)CC(C)(O)C(C(=O)OCC)C1c1ccc(OCC)cc1 (stereo not given),24%,1,-2,-0.1,30,.,4.8,-0.7
CCOC(=O)C(NC(=O)NCc1ccc(F)cc1)(OCC)C(F)(F)F (stereo not given),-2%,-2,-5,1.0,-12,.,1.9,-3.3
NC(=O)Cn1nnc(-c2ccc(C(F)(F)F)cc2)n1,6%,3,1,0.3,-6,.,2.8,6.1
NNC(=O)CNC(c1ccccc1)c1cc(Br)ccc1NC(=O)c1ccccc1Br (stereo not given),6%,-2,-2,-0.8,6,.,-0.2,-0.5
Cc1ccc(-c2cc(C(F)F)nc(NCC3CCCO3)n2)cc1 (stereo not given),1%,-7,.,-0.3,24,.,3.7,-3.1
CCN1CCN(S(=O)(=O)c2ccc(Br)s2)CC1,-1%,17,-4,-0.3,16,.,-0.5,-2.0
CC1(C(=O)NCCOc2ccccc2Cl)CC1(Cl)Cl (stereo not given),-3%,0,0,-0.2,11,3.8,-5.4,3.7
COc1ccc2nc(-c3ccc(N)cc3)[nH]c2c1,-8%,-1,24,0.2,-10,.,0.6,2.9
Cc1ccc(N2C(=O)CC(Cc3cccc(C)c3)C2=O)cc1 (stereo not given),9%,-7,2,0.0,12,-0.4,-3.3,-2.4
OCC[C@H]1C[C@H](O)[C@@H](O)[C@@]2(Cc3ccccc3O2)O1,.,.,8,-0.7,.,-0.9,.,-6.4
CCN1C(=O)C(CC(=O)Nc2ccccc2Cl)N(NC(=O)c2cccc(F)c2)C1=S (stereo not given),.,6,-2,-0.1,5,0.9,4.1,-11
O=C(Nc1ccccc1NC(=O)c1c(F)c(F)c(F)c(F)c1F)c1c(F)c(F)c(F)c(F)c1F,3%,12,0,2.0,-6,.,0.6,4.3
C#CCOCCOCCOCCNc1nc(N2CCN(C(=O)[C@H]([C@@H](C)CC)n3cc([C@@H](N)Cc4ccc(O)cc4)nn3)CC2)nc(N2CCN(C(=O)[C@H](Cc3ccc(O)cc3)n3cc([C@@H](N)CC(C)C)nn3)CC2)n1,?,11,4,0.6,-12,16,2.8,-4.1
Cc1cc(C)c(NC(=O)CCCCCNC2CCCCC2)c(C)c1,-5%,2,-7,1.3,4,-1.8,-5.0,6.7
Cc1c(C(=O)Nc2ccccc2F)sc2nc3n(c(=O)c12)CCC3,?,1,-2,0.4,-3,-0.9,-3.4,0.9
O=C(NCCS(=O)(=O)N1CCN(c2ccccc2F)CC1)c1c(F)cccc1F,1%,17,-5,1.7,6,0.2,0.7,-14
Cc1ccc2c(c1)c(C)c(C)n2CC(O)Cn1nnc2ccccc21 (stereo not given),-2%,-4,.,-1.0,-4,.,2.1,-3.9
CCOc1ncccc1C(=O)OCC(=O)Nc1ccc2c(c1)OCO2,-6%,0,-1,0.3,-6,.,-0.9,2.4
CCn1c(Cc2ccccc2)nnc1SCC(=O)Nc1nc(C)cs1,.,19,-5,0.2,-1,.,4.3,0.9
O=C(c1ccc2c(c1)OCCO2)N(c1ccccn1)C1CCCCC1,3%,3,-1,0.2,9,.,-0.1,-8.0
COc1cc(C(=O)NC2CCCCCCC2)cc(OC)c1OC,.,-5,-8,-0.4,-19,-2.2,-0.2,0.3
SMILES,Vif A3G,Calb FLC,Beta apoptosis,Bfl-1 A1 inh,T cruzi repl,MLL AF4-AF9 inh,RanGTP-Imp inh,LANA-H2A inh
O=C(Cc1ccccc1)NCC(=O)OCC(=O)c1ccc(Cl)cc1,.,3,.,1.2,-12,-2.7,-1.1,1.5
Cc1nc(NC(=O)c2ccccc2)sc1-c1csc(Nc2cccc(Cl)c2)n1,5%,16,-7,-6.2,1,.,2.2,0.1
CCOc1cc(C)nc(Oc2ccc(=O)[nH]n2)n1,0%,7,.,0.7,-4,.,2.4,1.2
CCOC(=O)c1sc(NC(=O)CSc2nnc(-c3ccco3)n2CC)c(C(=O)OCC)c1C,-4%&25%,8,3,0.5,3,-9.3,-0.7,8.1
CCC(=O)Nc1nc(C)c(C(=O)Nc2cccc(Cl)c2)s1,.,6,.,-0.8,1,3.5,3.3,-0.3
CS(=O)(=O)c1ncc(Cl)c(C(=O)Nc2ccc3ccccc3c2)n1,8%,-7,.,.,54,-5.7,-0.4,.
CC(=O)NC1CCCN(O)C(=O)/C=C(\C)CCOC(=O)C(NC(C)=O)CCCN(O)C(=O)/C=C(\C)CCOC(=O)C(NC(C)=O)CCCN(O)C(=O)/C=C(\C)CCOC1=O (stereo not given),21%,86*,-9,1.1,?,.,6.1,-7.2
Cc1ccc(-c2nnc(CN3CCN(C)CC3)o2)cc1,.,-9,-5,0.0,4,0.3,0.2,-1.0
O=C(NC1CCCCC1)C(c1ccc(F)cc1)N(CCN1CCOCC1)C(=O)c1ccc(-c2ccccc2)[nH]1 (stereo not given),4%,-4,0,1.0,15,0.5,?,-2.5
N#C/C(=N\Nc1ccccc1)C(=N)N1CCCCC1,3%,37,.,-1.4,-2,.,-2.5,2.3
CCN(C(=O)Cn1c(=O)n(Cc2ccccc2)c(=O)c2ccccc21)c1cccc(C)c1,-2%,7,9,0.6,18,.,1.5,-2.2
COc1ccc(-c2noc(C3CCCN(S(=O)(=O)c4cccc(Cl)c4C)C3)n2)cc1OC (stereo not given),-5%&-7%,2,1,-0.4,23,.,0.0,-9.1
Cc1cc(=O)[nH]c(SCC(=O)Nc2ccc(N3CCCCC3)cc2)n1,.,.,-3,0.1,.,1.4,.,2.8
CCCCC(=O)NC(=S)Nc1cc(C(=O)O)ccc1Cl,16µM*,1,-2,0.0,7,.,-2.8,-0.1
Cc1ccc(NC(=O)Cn2c(=O)oc3ccccc32)cc1C,.,-11,-4,0.4,-3,-17,0.3,0.2
CCOC(=O)C1=C(C)N(CCCC(=O)O)C(=O)NC1C(CC)CC (stereo not given),.,12,-21,-0.9,-26,-6.0,5.0,1.2
Cc1ccc(CC(=O)N(Cc2ccccc2)c2ccccn2)cc1,-7%,-7,-8,0.3,-11,-0.4,0.1,-2.2
Cc1ccc2c(c1)c(=O)c1c3n2CCN(C(=O)CCl)C3CC1 (stereo not given),11µM*,4,-13,-0.3,-6,-10,-3.6,10
CCN1CCN(CCCNC(=O)c2ccc(/C=C3/Sc4ccccc4N(Cc4ccccc4F)C3=O)cc2)CC1,30%,3,4,0.3,57*,8.1,?,-2.6
